Compound activity (PubChem BioAssay)
FEN1 inhibitor – inhibitors of human flap endonuclease 1. P39748. 390,000 compounds, 0.35% hits. Recombinant FEN1 flap cleavage, fluorescence, 15 min. AID 588795. Potency, µM (doses to about 114 µM), for the others: at the top dose activity change, negative = inhibition, actives largely listed as inhibitors; note: nearly all actives have a fitted effect of over 65% in size
Target sequence (P39748 whole entry, looked up): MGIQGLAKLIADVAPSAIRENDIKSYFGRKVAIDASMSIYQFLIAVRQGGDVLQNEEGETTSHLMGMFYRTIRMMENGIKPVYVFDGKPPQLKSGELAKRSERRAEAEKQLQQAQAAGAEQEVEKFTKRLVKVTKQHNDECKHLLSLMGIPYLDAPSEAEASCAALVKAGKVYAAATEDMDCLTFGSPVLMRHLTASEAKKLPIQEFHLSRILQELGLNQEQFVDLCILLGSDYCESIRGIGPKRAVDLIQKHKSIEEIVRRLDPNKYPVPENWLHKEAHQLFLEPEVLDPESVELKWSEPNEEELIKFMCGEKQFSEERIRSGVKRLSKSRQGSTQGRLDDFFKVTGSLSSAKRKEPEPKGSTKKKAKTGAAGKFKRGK
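Compounds are tested as a concentration series against 10 nM FEN1; after a 15 min room-temperature preincubation, 50 nM substrate starts cleavage, with plate reads at 0 and 15 min. Normalized responses are fitted by a Hill equation.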
N370S GC – inhibits or activates N370S mutant glucocerebrosidase. Potency, µM (series often up to 59.4 µM), inactives show top-dose activity change, negative = inhibition, actives largely listed as inhibitors. N370S GC spleen homogenate, 4MU-glucoside fluorescence. AID 2101. P04062. 330,000 compounds, 0.092% hits;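 note: 0% = full enzyme activity and -100% = no enzyme basal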
The depositor's hits bear a star; ? = inconclusive; · = not tested or not shown; & = joins results of further samples; [ ] = remark or other dose. Calls come from the whole dose curve; as a rule, active = well fitted curve in the direction sought with a large enough effect; inconclusive = small, poorly fitted or top-dose-only effect, or another doubt; inactive = no such curve, though single readings can be large; an effect the other way counts as inactive or inconclusive. Unless noted, % is set by controls: 0 for no effect and ±100 for the full control effect; potency is the fitted concentration of half-maximal effect.

SMILES	FEN1 inhibitor	N370S GC
COc1ccc(/C=C(\NC(=O)c2ccco2)C(=O)Nc2ccc(C(C)=O)cc2)cc1	-3%	4%
N/C(=N\OC(=O)c1cccc(Cl)c1)c1ccncc1	-3%	5%
C/C=C/c1ccc(OCCNCc2ccccc2)c(OC)c1	12%	-2%
CCn1c(=N)c(C(=O)NCc2cccnc2)cc2c(=O)n3cc(C)ccc3nc21	-3%	·
COc1cc(C(=O)NC(C)C2CC3CCC2C3)cc(OC)c1OC (stereo not drawn)	4%	-10%
CC(=O)c1ccccc1NC(=O)COC(=O)c1cc[n+]([O-])cc1	15%	·
CC(=O)Nc1ccc(SCCN2CC[C@@H](C(C)(C)C)CCC2=O)cc1	10%&-9%	·
CC(C)(C)OC(=O)CNC(=O)c1[nH]cnc1C(=O)NC(c1ccccc1)c1ccccc1	-30%	?
Oc1ccc(-c2cn3ccccc3n2)cc1O	10%	-4%
CC[C@]1(C(=O)OC)[C@H]2C(=O)N(Cc3ccccc3)C(=O)[C@H]2[C@H]2CN=C(SCC3CC3)N21	0%	·
Cc1ccc(-c2nc(C(=O)NCCCN(C)C)cc3c2[nH]c2ccccc23)cc1	?	2%
Cc1ccc(C)c(-c2cc(C(=O)Nc3cccnc3)c3ccccc3n2)c1	-21%	-11%
O=C(COc1ccc(F)cc1Br)N1CCN(S(=O)(=O)/C=C/c2ccccc2)CC1	-6%	1%
O=C(NCc1cccc(Cl)c1)c1cccc(S(=O)(=O)N2CCCC2)c1	-8%	·
C=CC(=O)NC(NC(=O)C=C)c1ccc(Br)cc1	5%	-4%
Cc1ccc(NC(=O)Nc2cnccn2)cc1	-14%	25%
COc1ccc(N=C/C=C2\C=C(c3ccccc3)OC(C)(C)O2)cc1	-22%	14%
C/C(=N\NC(=O)C(c1ccccc1)c1ccccc1)c1ccccn1	-4%	5%
CCn1ccc2cc(S(=O)(=O)N3CCCN(C(=O)Nc4cc(Cl)ccc4C)CC3)ccc21	-3%	·
Cc1cccc(/C=N/n2c(-c3ccccn3)n[nH]c2=S)c1	·	4%
COc1ccc(S(=O)(=O)Nc2ccc(Oc3ccsc3C(=O)O)cc2)cc1	17%	-6%
Cc1ccc(SCC(=O)NC2CCS(=O)(=O)C2)cc1C (stereo not drawn)	1%	·
O=C(CCCn1c(=O)oc2ccccc21)Nc1ccccc1	-5%	-3%
C=CCn1c(-c2ccccc2)nc(=S)c2c1CC(C)(C)OC2	9%	-16%
O=C(CSc1nnc(-c2cccs2)o1)NCC1CN(Cc2ccccc2)CCO1 (stereo not drawn)	6%	-1%
COc1ccc(N(CN2C(=O)c3ccccc3C2=O)C(=O)C(C)C)cc1	8%	-5%
OC(Cc1cccnc1)(Cc1cccnc1)c1cc2ccccc2[nH]1	4%	2%
Cc1noc(C)c1COC(=O)CCOc1ccccc1	0%	4%
O=S(=O)(c1ccccc1)N1CCC(Oc2ccc(-n3cnnn3)cc2)CC1	-5%	-3%
CCOC(=O)C1C(=O)NC(N2CCN(c3ccccc3)CC2)=NC1c1ccccc1 (stereo not drawn)	-3%	11%
O=C(NCCc1cccc(F)c1)C1CCCN(c2nc3ccccc3s2)C1 (stereo not drawn)	7%	-9%
O=C(NNc1nc(-c2ccccc2)cs1)c1ccc(F)cc1	-4%	22%
Cc1ccccc1CN(C)C1CCN(C)CC1	26%	-1%
Cc1c(C(=O)NCC2CCCO2)oc2ccccc12 (stereo not drawn)	-4%	·
O=c1cc(/N=C/c2coc3c(ccc4ccccc43)c2=O)[nH]c(=S)[nH]1	-32%	-17%
CCC(=O)N(CCO)Cc1cc2ccc(C)c(C)c2[nH]c1=O	0%	7%

One compound at a time, as listed above. Order of screens: FEN1 inhibitor, N370S GC
C=CC(=O)NC(NC(=O)C=C)c1ccc(Br)cc1 is listed with 5%, -4%
CC(=O)Nc1ccc(SCCN2CC[C@@H](C(C)(C)C)CCC2=O)cc1 is listed with 10%&-9%, ·
O=C(CSc1nnc(-c2cccs2)o1)NCC1CN(Cc2ccccc2)CCO1 (stereo not drawn) is listed with 6%, -1%
CCn1ccc2cc(S(=O)(=O)N3CCCN(C(=O)Nc4cc(Cl)ccc4C)CC3)ccc21 is listed with -3%, ·

The results go on.
SMILES	FEN1 inhibitor	N370S GC
CCOc1ccccc1NC(=O)c1ccc(F)c(S(=O)(=O)N2CCC3(CC2)OCCO3)c1	-8%	5%
O=C(CN1C(=O)S/C(=C\c2ccc(Cl)cc2)C1=O)NC1C=CS(=O)(=O)C1 (stereo not drawn)	-11%	-12%
NC(=O)CCn1c(C(=O)c2ccc(Cl)cc2)c2ccccc2[n+]1[O-]	0%	-1%
O=C(NCc1ccc2c(c1)OCO2)C1CC(=O)N(CCc2ccc(F)cc2)C1 (stereo not drawn)	2%	-16%
Cc1ccc(-n2c(=O)[nH]cc(C(=O)N3CCc4ccccc43)c2=O)cc1	-13%	4%
CCc1cc2c(C)ccc(C)c2nc1SCC(=O)Nc1c(C)[nH]c(=O)[nH]c1=O	1%	5%
Cc1cccc2cc3c(NC(=O)C(C)C)nn(C)c3nc12	0%	?
COc1ccc(C(=O)NCc2nnc(SCC(=O)c3ccc(F)cc3)n2C)cc1OC	7%	1%
Cc1nnc(SCC(=O)Nc2ccc(S(=O)(=O)N3CCCC3)cc2)n1N	5%	5%
O=C(N/N=C(\Cc1ncc[nH]1)c1ccccc1)c1ccncc1	3%	-5%
COc1ccc(CN(C)C(=O)c2ccc(NC(=O)CC3SC(N4CCCC4)=NC3=O)cc2)c(OC)c1 (stereo not drawn)	5%	1%
COc1ccc(-c2onc3ccc(Cl)cc23)cc1	-3%	-1%
C[C@@H](O)CC#Cc1ccc2oc(=O)c(-n3cc(-c4ccsc4)nn3)cc2c1	12%	·
CCOC(=O)c1[nH]cnc1C(=O)N1CCC(C)CC1	16%	·
O=C1CCCc2nc3c(cc21)C(O)Oc1c-3ccc2ccccc12 (stereo not drawn)	0%	14%
CCC(Oc1ccccc1)C(=O)Nc1ccc(S(=O)(=O)Nc2cc(C)on2)cc1 (stereo not drawn)	-3%	-5%
CCOc1ccc2[nH]c3nc(SCC(=O)NC4CC4)nnc3c2c1	-11%	1%
N[C@@H](C(=O)O)c1ccc(P(=O)(O)O)cc1	·	-6%
C[C@H](CO)N1C[C@H](C)[C@@H](CN(C)S(=O)(=O)c2ccc(Cl)cc2)Oc2ccc(NS(=O)(=O)c3ccccc3)cc2CC1=O	12%	·
CSc1nc2c(c(=O)[nH]1)C(c1ccc(C(F)(F)F)cc1)CC(=O)N2 (stereo not drawn)	1%	0%
COc1ccc(NC(=O)COc2ccc(/C=N/O)cc2OC)cc1	-7%	6%
CC(=O)Nc1ccc(S(=O)(=O)Nc2cc3c(cc2C(C)=O)OCO3)cc1	10%	1%
Nc1nn2cc(-c3ccc(Br)cc3)nc2c2ccccc12	?	?
O=C1CSc2ccc(C(=O)Nc3cccc(S(=O)(=O)Nc4ccc(Br)cc4)c3)cc2N1	-8%	-20%

Part of the list above in order of count of non-hydrogen atoms, rising.
SMILES	FEN1 inhibitor	N370S GC
CCOC(=O)c1[nH]cnc1C(=O)N1CCC(C)CC1	16%	·
Nc1nn2cc(-c3ccc(Br)cc3)nc2c2ccccc12	?	?
CCOc1ccc2[nH]c3nc(SCC(=O)NC4CC4)nnc3c2c1	-11%	1%
CCC(Oc1ccccc1)C(=O)Nc1ccc(S(=O)(=O)Nc2cc(C)on2)cc1 (stereo not drawn)	-3%	-5%
O=C1CSc2ccc(C(=O)Nc3cccc(S(=O)(=O)Nc4ccc(Br)cc4)c3)cc2N1	-8%	-20%
C[C@H](CO)N1C[C@H](C)[C@@H](CN(C)S(=O)(=O)c2ccc(Cl)cc2)Oc2ccc(NS(=O)(=O)c3ccccc3)cc2CC1=O	12%	·

Next part.
SMILES	FEN1 inhibitor	N370S GC
Cc1cccc(-c2csc(NC(=O)c3cnccn3)c2C(=O)OC(C)C)c1	-10%	-16%
CCC(C)Nc1nc(Cl)nc(NCCOc2ccccc2)n1 (stereo not drawn)	-4%	5%
COc1cccc(N2C(=O)C3NN=C(C(=O)CN4C(=O)c5ccccc5C4=O)C3C2=O)c1 (stereo not drawn)	-3%	11%
CCn1c(SCC(=O)Nc2nc(-c3ccc(C)cc3)cs2)nnc1-c1ccccc1O	-1%	21%
CN(c1ccccc1)S(=O)(=O)c1ccc(NC(=O)c2ccccc2)cc1	-22%	-10%
CCOC(=O)C1=C(C)c2ccccc2OC1(C(=O)OCC)C(C)C (stereo not drawn)	-1%	-10%[89.1 µM]
Cc1ccccc1NC(=O)C1CCC(CNS(=O)(=O)c2ccc3c(c2)C(C)(C)C(=O)N3C)CC1 (stereo not drawn)	-4%	·
CCCCN(C)CCCNC(=O)C1(O)c2ccccc2NC(=O)N1c1ccc(Cl)cc1 (stereo not drawn)	-2%	5%
CCN(CC)S(=O)(=O)c1ccc(NC(=O)COc2nc3ccccc3nc2N2CCOCC2)cc1	-5%	1%
Cc1cc(NC(=O)CCC(=O)N(CC(=O)NC2CCCC2)c2ccc(Cl)cc2)no1	12%	-2%
O=C(CCC1CCCCC1)NCCS(=O)(=O)N1CCN(c2ccccc2F)CC1	-1%	-9%
COc1ccc(-c2cc3nc[nH]c(=O)c3s2)cc1	-6%	8%
Cc1cc(Nc2ccc3c(c2)OCCO3)c2ccccc2n1	-9%	6%
Cc1ccccc1NC(=O)CCS(=O)(=O)c1cc(Br)cc2c1N(C(=O)C1CC1)CC2	4%	·
COc1ccccc1CCNC(=O)c1cc(C2CC2)nc2c1cnn2C(C)C	-4%	-5%
CCCn1c(CCc2ccccc2)nnc1SCC(=O)N1CCCC1	10%	1%
CCOC(=O)C1CCN(C(=O)Nc2cccc(Cl)c2)CC1	9%	4%
COc1ccc(N2CCN(C(=O)c3cnc(N4CCOCC4)c4ccccc34)CC2)cc1	17%	·
O=C(CSc1ccc2nnc(-c3ccc(F)cc3)n2n1)N1CCCc2ccccc21	-6%	7%
O=C(CC(C(=O)O)c1ccc(F)cc1)c1ccc(Cl)cc1 (stereo not drawn)	-7%	2%
CC(=O)NCCNc1ncnc2ccc(-c3ccccc3C)cc12	·	-11%
COc1ccc(NC(C)=O)cc1NC(=O)CN1CCN(C(=O)c2ccco2)CC1	3%	4%
Cc1ccc(CSC2=NCCN2C(=O)c2ccco2)cc1	8%	4%
O=C(CN(c1cccc(Cl)c1)S(=O)(=O)c1ccc(Cl)cc1)NCc1ccccn1	-4%	3%
O=C(CNC(=O)c1cccc(F)c1)N/N=C/c1cccc([N+](=O)[O-])c1	6%	2%
Cn1c(=O)oc2cc(S(=O)(=O)Nc3ccc(Cl)cc3)ccc21	1%	-3%
CC1CCCN(CC(=O)NNC(=O)COc2ccc(Br)cc2)C1 (stereo not drawn)	-1%	·
COc1ccc2[nH]c(=O)c(CN(C(C)=O)c3ccc(C)cc3C)cc2c1	4%	3%
Cc1ccc(NC(=O)CN2CCCN(Cc3ccccc3Cl)S2(=O)=O)c(C)c1	2%	·
CCc1cccc(NC(=O)COC(=O)c2cc([N+](=O)[O-])ccc2N2CCOCC2)c1	-1%	-20%
CCOc1ccccc1NC(=O)CSc1n[nH]c(N)n1	-9%	-1%
O=C(c1ccc(Cl)cc1)c1coc2ccc(O)cc12	-15%	3%
COc1cccc(/C=N/NC(=S)NCc2ccco2)c1OC	-8%	-15%
Cc1ccc(C(=O)NCC(=O)OCCCOC(=O)CNC(=O)c2ccc(C)c(C)c2)cc1C	-1%	·
CCN(CC)S(=O)(=O)c1ccc(N2CCOCC2)c(NC(=O)c2cccc3ccccc23)c1	-6%	?
COc1ccc(NC(=O)Cn2nnc(C(=O)Nc3ccc(F)c(Cl)c3)c2N)cc1OC	17%&-7%	3%
COc1ccc2c(c1)c1nnc(SC)nc1n2C	3%	6%
Cc1cccc(N2CCN(C(=O)COc3ccc4c(c3)CCC4)CC2)c1C	-7%	6%
COc1cc(OC)c2ccc(=O)oc2c1	10%	?
Cc1noc(C)c1C(=O)Nc1ccccc1-c1ccccc1	2%	1%
C/C(=N\NC(=O)c1c([N+](=O)[O-])c(C)nn1C)c1ccc(NC(=O)c2ccc(C)o2)cc1	-4%	-11%
O=C1C(Cl)=C(N2CCCC2)C(=O)N1c1ccccc1F	14%	-3%
CCc1c(C)nc2cc(-c3cccs3)[nH]n2c1=O	-7%	-1%
COc1ccc(NC(=O)CCc2c(C)nn(-c3ccc(N4CCOCC4)nn3)c2C)cc1	17%	-4%
O=C(NCCc1ccccc1)C1CCN(Cc2cccc3ccccc23)CC1	8%	-13%
Nc1cccc(-c2cn3ccsc3n2)c1	-1%	·
Cc1nn2c(CN(C(=O)COc3ccccc3)c3ccccc3)nnc2c2ccccc12	-3%	?
O=C(O)c1cccnc1SC1CC(=O)N(Cc2ccccc2)C1=O (stereo not drawn)	8%	5%
COC(=O)CCC(=O)Nc1ccc(S(=O)(=O)N2CCCCCC2)cc1	3%	2%
CC(C)Nc1nnc(SC(C)C(=O)Nc2ccc(Cl)cn2)s1 (stereo not drawn)	-10%	-2%
COc1ccc(CCNC(=O)C2CCN(S(=O)(=O)N3CCCCC3)CC2)cc1OC	-7%	-9%
COC(=O)c1ccc(COn2c(=O)c(C)[n+]([O-])c3ccccc32)cc1	-10%	-2%
Cc1c(C)n(C)c2ccc(C(=O)N3CCN(c4ccccn4)CC3)cc12	-6%	-16%
COc1ccc(N(CC(=O)NCCSc2ccccc2)S(C)(=O)=O)cc1	-12%	10%
CCC(CC)C(=O)Nc1ccc(OCc2cc(=O)n3ccc(C)cc3n2)cc1	6%	·
Cc1ccccc1C(=O)NC(=S)Nc1cccc(NC(=O)C(C)C)c1	-8%	-4%

A portion of the library, and most or all hits are left out here.
